SARS PLpro yeast – qHTS of Yeast-based Assay for SARS-CoV PLP; 330,000 tested, 0.19% active; AID 485353, 2010; S. cerevisiae expressing SARS-CoV PLpro, growth rescue; control for the full effect not named in the record; Potency, µM (top dose mostly 32.9 µM), inactives show top-dose activity, positive = growth rescue; further: 0% is about no effect; nearly all actives have a fitted effect of over 55% in size; growth read by luminescence after 48 h
StopGo reporter – High Throughput Screening for Foot and Mouth Disease Virus Antivirals. Potency, µM (series often up to 57.9 µM), for the others: top-dose signal change, negative = less light. 410,000 tested, 1.2% active. human cells with a luciferase reporter of 2A StopGo recoding; control for the full effect not named in the record; active = well fitted falling curve with a large enough effect; inconclusive = small, poorly fitted or top-dose-only effect; inactive = no such curve, though single readings can be large or run the other way; tested in HEK293T cells; further: on the % scale 0 is the no-effect control and ±100 the full control effect; nearly all actives have a fitted effect of over 45% in size; luciferase light after 4 h
Marburg entry inh – qHTS for inhibitors of binding or entry into cells for Marburg Virus | Marburg virus pseudotyped entry inhibition, cell reporter; control for the full effect not named in the record; about a third of the inactives were read at about 46 µM | Potency, µM (highest dose often 37.8 µM), inactives show top-dose activity change, negative = inhibition, actives largely listed as inhibitors | 300,000 tested, 1.8% active; active = well fitted inhibition curve with a large enough effect; inconclusive = small, poorly fitted or top-dose-only effect, or effect the other way; inactive = flat fitted curve, though single readings scatter; tested in HEK293 cells; about a fifth of its hits are not listed in these tables; further: on the % scale 0 is the no-effect control and ±100 the full control effect; luciferase read-out
LASV entry inh – qHTS for Inhibitors of binding or entry into cells for Lassa Virus; Lassa virus pseudotype entry inhibition, cell reporter; control for the full effect not named in the record; Potency, µM (doses to about 37.9 µM), without a hit: at the highest dose activity change, negative = inhibition, actives largely listed as inhibitors; 300,000 tested, 1.2% active; AID 540256, 2011; active means well fitted inhibition curve with a large enough effect; inconclusive means small, poorly fitted or top-dose-only effect, or effect the other way; inactive means flat fitted curve, though single readings scatter; tested in HEK293 cells; further: on the % scale 0 is the no-effect control and ±100 the full control effect; nearly all actives have a fitted effect of over 50% in size; luciferase read-out
RE007 growth inh – qHTS Assay for Inhibitors of the HIV-1 protein Vpr | S. pombe RE007 Vpr strain, BacTiter-Glo ATP luminescence, 24 h; control for the full effect not named in the record | Potency, µM (highest dose often 92.2 µM), for the others: top-dose activity change, negative = less growth | 360,000 tested, 0.21% active | AID 651644, 2012; active = well fitted falling curve with a large enough effect; inconclusive = small, poorly fitted or top-dose-only effect; inactive = no such curve, though single readings can be large or run the other way;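 further: on the % scale 0 is the no-effect control and ±100 the full control effect; nearly all actives have a fitted effect of over 50% in size; the assay follows cell death caused by Vpr and the record does not say whether a fall means rescue or toxicity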
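Fission yeast strain RE007, carrying one chromosomally integrated HIV-1 vpr copy, was seeded at OD 0.01 in PMG+AL medium with 23 nL pinned compound. After 24 h at 30 °C and 99% humidity, viability was read by BacTiter-Glo luminescence.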
Cruzain noTriton – qHTS Assay for Promiscuous and Specific Inhibitors of Cruzain (without detergent); AID 1476, 2009; Cruzipain (Trypanosoma cruzi), P25779; purified cruzain, Z-FR-AMC fluorescence, no detergent; 200,000 tested, 2.3% active; Potency, µM, inactives show max response, negative = inhibition, actives largely listed as inhibitors; active means well fitted curve in the direction sought with a large enough effect; inconclusive means small, poorly fitted or top-dose-only effect, or another doubt; inactive means no such curve, though single readings can be large; an effect the other way counts as inactive or inconclusive;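 further: plate controls were enzyme without inhibitor for no effect and buffer without enzyme for full effect; nearly all actives have a fitted effect of over 40% in size; top concentration of the series not given in the record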
Target sequence (P25779 123-467 limits assumed): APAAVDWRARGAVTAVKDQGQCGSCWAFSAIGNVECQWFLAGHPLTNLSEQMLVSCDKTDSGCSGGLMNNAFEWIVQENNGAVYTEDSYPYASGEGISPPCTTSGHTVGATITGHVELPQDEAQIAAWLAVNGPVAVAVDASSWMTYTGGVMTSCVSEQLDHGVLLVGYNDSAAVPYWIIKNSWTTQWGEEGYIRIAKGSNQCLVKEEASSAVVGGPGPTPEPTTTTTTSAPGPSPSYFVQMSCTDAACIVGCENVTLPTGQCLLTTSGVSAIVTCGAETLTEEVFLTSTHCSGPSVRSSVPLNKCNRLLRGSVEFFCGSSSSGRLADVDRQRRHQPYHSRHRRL
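Detergent-free condition (0.00005% Triton X-100) in acetate buffer pH 5.5 with DTT. 1.5 nM enzyme and compound were pre-mixed 15 min, then 2 uM Z-FR-AMC substrate added; reaction progress from fluorescence change between first and third reads (60 s).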
Cruzain Triton – qHTS Assay for Promiscuous and Specific Inhibitors of Cruzain (with detergent); Cruzipain (Trypanosoma cruzi), P25779; purified cruzain, Z-FR-AMC fluorescence, 0.01% Triton; Potency, µM, for inactives: max response, negative = inhibition, usual class: inhibitors; 200,000 tested, 0.43% active; AID 1478, 2009; active means well fitted curve in the direction sought with a large enough effect; inconclusive means small, poorly fitted or top-dose-only effect, or another doubt; inactive means no such curve, though single readings can be large; an effect the other way counts as inactive or inconclusive;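 further: plate controls were neutral wells for no effect and buffer without enzyme for full effect; nearly all actives have a fitted effect of over 40% in size; top concentration of the series not given in the record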
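Detergent-containing arm of a paired screen for aggregation-based inhibition: 0.01% Triton X-100 present. Cruzain at 1.5 nM cleaved 2 uM Z-FR-AMC at pH 5.5 with 5 mM DTT; AMC fluorescence gain over 60 s measured activity.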
NS1 function inh – qHTS Assay for Inhibitors of Influenza NS1 Protein Function. 270,000 tested, 0.4% active. Potency, µM (top dose mostly 46.1 µM), for the others: at the top dose activity, positive = more growth. S. cerevisiae slowed by influenza A NS1, growth recovery by OD600; further: actives are rising curves; nearly all actives have a fitted effect of over 50% in size
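In this qHTS, NS1 from influenza A is expressed in budding yeast, where it slows growth. Cells are switched from glucose to 2% galactose medium (pH 6.0, -URA), treated with compound, and growth recovery is read at OD600.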
Active calls of the source: *; & = joins results of further samples; [ ] = remark or other dose. Unless noted, the call rests on the fitted dose curve; in most records, active means well fitted rising curve with a large enough effect; inconclusive means small, poorly fitted or top-dose-only effect; inactive means no such curve, though single readings can be large or run the other way. Potency means the concentration at half of the fitted maximal effect.

What do the screens show for `CCOC(=O)NN=C1c2ccccc2-c2ccccc21`?
SARS PLpro yeast: 2.3%; StopGo reporter: -11.5%; Marburg entry inh: 6.9%; LASV entry inh: -25.9%; RE007 growth inh: 0.6%; NS1 function inh: -11.7%

How did Cc1cc(C)c2c(=O)cc(C(F)F)oc2c1 do in these assays?
SARS PLpro yeast: 6.7%; StopGo reporter: -3.7%; Marburg entry inh: -2.5%; LASV entry inh: -9.7%; RE007 growth inh: -1.1%; Cruzain noTriton: 12.0%; Cruzain Triton: 1.0%; NS1 function inh: -4.6%

What do the screens show for `O=C(Cc1cccs1)Nc1nc(-c2ccccc2)cs1`?
SARS PLpro yeast: -0.2%; StopGo reporter: inconclusive; Marburg entry inh: inconclusive; LASV entry inh: 1.64µM*; RE007 growth inh: -15.8%; Cruzain noTriton: -0.4%; Cruzain Triton: -9.6%; NS1 function inh: -53.2%

How did CC(NC(=O)c1cc2sccc2n1Cc1ccc(F)cc1)c1ccccc1 (stereo unspecified) do in these assays?
StopGo reporter: 0.0%; Marburg entry inh: -17.7%[46.1 µM]; LASV entry inh: -19.5%[46.1 µM]; Cruzain noTriton: -15.7%; Cruzain Triton: -2.0%

Results for O=C(Nc1ccccc1F)c1ccc2nc(N3C(=O)CCC3=O)sc2c1 ?
SARS PLpro yeast: -3.1%; StopGo reporter: 36.4%[activator]; Marburg entry inh: 14.2%; LASV entry inh: 2.7%; RE007 growth inh: -7.3%; Cruzain noTriton: 4.9%; Cruzain Triton: -0.6%; NS1 function inh: -5.0%

Results for COc1cc2c(C(=O)Nc3ccc(C)cc3Br)cn(C)c(=O)c2cc1OC ?
StopGo reporter: -8.3%; Marburg entry inh: 18.7%[46.1 µM]; LASV entry inh: 4.3%[46.1 µM]; Cruzain noTriton: 3.8%; Cruzain Triton: 5.4%

How did Cc1ccc(S(=O)(=O)N2CCCCC2CCNC(=O)C(=O)NCc2ccco2)cc1 (stereo unspecified) do in these assays?
SARS PLpro yeast: 4.8%; StopGo reporter: -22.2%; Marburg entry inh: inconclusive; LASV entry inh: -24.3%; RE007 growth inh: 2.3%

Results for CCOC(=O)c1nn(-c2ccccc2)c(=O)cc1OCC(=O)Nc1cccc(OC)c1 ?
SARS PLpro yeast: 0.7%; StopGo reporter: -8.6%; Marburg entry inh: -29.9%; LASV entry inh: 7.8%; RE007 growth inh: -8.1%

What do the screens show for `CCOC(=O)N1CCN(C(=O)c2ccc(NC(=O)c3ccc(C)cc3)cc2)CC1`?
SARS PLpro yeast: -0.1%; StopGo reporter: inconclusive; Marburg entry inh: 2.2%; LASV entry inh: inconclusive; RE007 growth inh: 1.4%; Cruzain noTriton: -0.9%; Cruzain Triton: -6.5%; NS1 function inh: -3.2%

Results for C[C@H](NC(=O)c1nc[nH]c1C(=O)N1CCc2ccccc2C1)C(=O)OCc1ccccc1 ?
SARS PLpro yeast: -0.5%; StopGo reporter: -5.6%; RE007 growth inh: -12.8%; NS1 function inh: -1.1%

Results for O=C(c1ccco1)N1CCN(S(=O)(=O)c2cc(Cl)ccc2Cl)CC1 ?
SARS PLpro yeast: -1.7%; StopGo reporter: -21.9%; Marburg entry inh: -9.0%; LASV entry inh: -16.3%; RE007 growth inh: -12.6%; NS1 function inh: -9.7%

How did COC(=O)c1cc(S(=O)(=O)N2CCC(C)CC2)cn1C do in these assays?
SARS PLpro yeast: -2.7%; StopGo reporter: -9.8%; RE007 growth inh: 6.3%; NS1 function inh: 7.6%

How did CC(NC(=O)Nc1ccc([N+](=O)[O-])cc1)C(c1cccs1)N1CCCC1 (stereo unspecified) do in these assays?
SARS PLpro yeast: -21.8%; StopGo reporter: -15.3%; Marburg entry inh: inconclusive; LASV entry inh: inconclusive; RE007 growth inh: -0.2%; Cruzain noTriton: -23.8%; Cruzain Triton: -20.4%; NS1 function inh: -9.0%

What do the screens show for `CNC(=S)NN(c1ccccc1)c1ccccc1`?
SARS PLpro yeast: 7.5%; StopGo reporter: 2.7%; Marburg entry inh: -1.9%; LASV entry inh: 26.4%; RE007 growth inh: 6.1%; Cruzain noTriton: -12.6%; Cruzain Triton: -1.0%; NS1 function inh: 18.4%

How did CCOC(=O)C1=C(C)NC(C)=C(C(=O)OCC)C1c1nc2ccccc2[nH]1 do in these assays?
StopGo reporter: -5.0%; Marburg entry inh: -0.5%; LASV entry inh: 1.2%; RE007 growth inh: 7.0%; NS1 function inh: 14.9%

How did CN(CCCN1CCOCC1)Cc1cn(C)nc1-c1ccccc1F do in these assays?
SARS PLpro yeast: -0.2%; StopGo reporter: 8.6%; Marburg entry inh: 11.8%[46.1 µM]; LASV entry inh: 6.7%; RE007 growth inh: 3.9%; NS1 function inh: -2.2%

Results for Cc1ccc(SCC(=O)N2CCCC2)cc1 ?
SARS PLpro yeast: -1.1%; StopGo reporter: 69.9%[activator]; Marburg entry inh: 0.7%; LASV entry inh: 15.5%; RE007 growth inh: -7.4%; Cruzain noTriton: -4.9%; Cruzain Triton: 4.5%; NS1 function inh: 3.5%

How did COc1cc(OC)c(OC)cc1/C=C/c1cc(C(F)(F)F)[nH]c(=O)n1 do in these assays?
SARS PLpro yeast: -1.2%; StopGo reporter: inconclusive; Marburg entry inh: inconclusive; LASV entry inh: -6.5%[46.1 µM]; RE007 growth inh: 5.5%; NS1 function inh: 0.4%

What do the screens show for `N#CCCNS(=O)(=O)c1ccc(C(=O)OCC2CCCCC2)cc1`?
SARS PLpro yeast: 4.9%; StopGo reporter: 5.0%; Marburg entry inh: inconclusive; LASV entry inh: inconclusive; RE007 growth inh: 14.2%; NS1 function inh: -6.4%

What do the screens show for `CCN(CC(N)=O)S(=O)(=O)c1ccc(F)cc1`?
SARS PLpro yeast: 0.3%; StopGo reporter: 0.2%; Marburg entry inh: 15.2%; LASV entry inh: -6.2%[46.1 µM]; RE007 growth inh: 2.3%; NS1 function inh: -0.2%

What do the screens show for `CC(=O)N1c2ccc(S(=O)(=O)N(C)c3cc(C)ccc3C)cc2CC1C` (stereo unspecified)?
SARS PLpro yeast: -1.2%; StopGo reporter: -2.0%; RE007 growth inh: 23.3%; NS1 function inh: -9.5%

How did CC1CN=C(N(C(=O)Nc2ccccc2)C(C)c2ccccc2)S1 (stereo unspecified) do in these assays?
SARS PLpro yeast: 0.3%; StopGo reporter: -4.9%; RE007 growth inh: 3.7%; NS1 function inh: 3.5%

How did O=C(CSc1nnc(CNC(=O)c2ccccc2)o1)c1ccc(Cl)cc1 do in these assays?
SARS PLpro yeast: -6.5%; StopGo reporter: -16.7%; RE007 growth inh: 3.2%; NS1 function inh: -2.0%

Results for O=C(c1cccc(Cl)c1)N1CCN(C(=O)c2ccccc2F)CC1 ?
SARS PLpro yeast: 1.9%; StopGo reporter: -14.3%; Marburg entry inh: -0.1%[46.1 µM]; LASV entry inh: inconclusive; RE007 growth inh: 22.9%; Cruzain noTriton: -1.8%; Cruzain Triton: 6.3%; NS1 function inh: -0.9%[9.22 µM]

Results for COc1cc(NC(=O)Cc2ccc(Cl)cc2)ccc1NC(=O)c1ccco1 ?
SARS PLpro yeast: -5.1%; Marburg entry inh: 3.2%; LASV entry inh: -27.8%; RE007 growth inh: -12.1%; Cruzain noTriton: -23.2%; Cruzain Triton: 2.1%; NS1 function inh: -0.1%

Results for CC1CCCCC1NC(=O)COC(=O)Cc1ccc(Br)cc1 (stereo unspecified) ?
SARS PLpro yeast: -3.9%; StopGo reporter: -12.2%; Marburg entry inh: 0.4%[14.2 µM]; LASV entry inh: -2.1%; RE007 growth inh: 7.5%

Results for Cc1ccc(NC(=O)N2CCc3ccccc3C2)cc1C ?
SARS PLpro yeast: -3.6%; StopGo reporter: 26.1%; Marburg entry inh: 4.9%[46.1 µM]; LASV entry inh: 31.2%[46.1 µM]; RE007 growth inh: -9.6%; NS1 function inh: -3.1%

How did c1ccc(-n2ncc3c2ncn2cnnc32)cc1 do in these assays?
SARS PLpro yeast: 9.3%; StopGo reporter: 11.6%; Marburg entry inh: 6.5%; LASV entry inh: 6.9%; RE007 growth inh: 6.0%; Cruzain noTriton: -8.5%; Cruzain Triton: 3.8%; NS1 function inh: -2.8%

How did Cc1ccc(C(C(=O)NCc2ccco2)N(CC2CCCO2)C(=O)Cn2nnc3ccccc32)cc1 (stereo unspecified) do in these assays?
SARS PLpro yeast: -2.4%; StopGo reporter: -4.0%; Marburg entry inh: 5.1%&-28.4%; LASV entry inh: -1.5%; RE007 growth inh: -2.9%; Cruzain noTriton: 1.3%; Cruzain Triton: 1.5%; NS1 function inh: -0.2%

How did O=C(OCc1nnc(-c2ccc([N+](=O)[O-])cc2)o1)c1ccc(F)c(S(=O)(=O)N2CCOCC2)c1 do in these assays?
SARS PLpro yeast: -6.3%; StopGo reporter: -12.6%; Marburg entry inh: 6.1%[46.1 µM]; LASV entry inh: 0.8%; RE007 growth inh: 15.1%

Results for Cc1ccc(O)c(C(CC(=O)N2CCCC2)c2ccccc2)c1 (stereo unspecified) ?
SARS PLpro yeast: 28.2%; StopGo reporter: 2.6%; Marburg entry inh: 0.3%; LASV entry inh: 3.3%; RE007 growth inh: -1.8%; Cruzain noTriton: 8.1%; Cruzain Triton: -5.3%; NS1 function inh: -5.1%

What do the screens show for `O=C(O)CCC(=O)N1c2ccccc2NC2=C(C(=O)CC(c3ccc(F)cc3)C2)C1c1ccc([N+](=O)[O-])o1` (stereo unspecified)?
SARS PLpro yeast: -1.0%; StopGo reporter: -8.2%; Marburg entry inh: -22.2%[46.1 µM]; LASV entry inh: 0.7%[46.1 µM]; RE007 growth inh: 8.7%; NS1 function inh: 12.1%

Results for CCCCC/C=C\C/C=C\C/C=C\C/C=C\CCCC(=O)NCC(=O)O ?
Marburg entry inh: inconclusive; LASV entry inh: inconclusive; Cruzain noTriton: inconclusive; Cruzain Triton: -13.4%&-9.7%&2.7%; NS1 function inh: 17.8µM*

Screening results: PubChem BioAssay, National Center for Advancing Translational Sciences (NCATS)
